Screening data deposited in PubChem by Broad Institute.
Tg IFNy HTS: T. gondii growth inhibition with IFN-gamma, primary screen, cell-based | Toxoplasma gondii growth in IFN-gamma-treated host cells; stronger effect = lower value; reference of the scale not given here | activity change, negative = inhibition, %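 (about 20 µM by stock and volumes)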 | 69,000 compounds, 3.8% hits | AID 1259416, 2018;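 active = below -70%; inconclusive = fit judged invalid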;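 also: host cells are HeLa cells infected with Toxoplasma gondii; parasite growth read as luciferase light; one replicate is shown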
Active calls of the source: *; ? = inconclusive; & = joins results of further samples. This is a subset. The share of hits here may be higher or lower than overall.

SMILES	Tg IFNy HTS
CC(C)=Cc1nc(C2(c3ccc(F)cc3)CCOC2)no1 (stereo unspecified)	-1
COCCOCC(=O)N1CCOc2c(O)cc(-c3ccc(C)cc3)cc2C1	-47
O=C1CCC(=O)N1CCSCc1cccc(C(F)(F)F)c1	-5
CCCOc1cc2c(cc1CN(C)Cc1cc(=O)[nH]c3ccccc13)OCO2	98
COCCN1CCOCC12CCN(Cc1cnc[nH]1)CC2	4
c1cn2c(n1)CN(CC1CCOC1)CC(Cn1cncn1)C2 (stereo unspecified)	41
Cn1cnc(S(=O)(=O)N2CCCCN3[C@H](C2)[C@H](c2ccc(C4=CCCCC4)cc2)[C@@H]3CO)c1	-18
C[C@@H]1CN([C@@H](C)CO)C(=O)c2cc(NC(=O)CCC(F)(F)F)ccc2O[C@@H](C)CCCCO[C@@H]1CN(C)C(=O)c1ccncc1	?
N#Cc1cc2c(cc1C#N)N1CCCc3cccc(c31)O2	-92*
O=C(CC1CC2(CCN(Cc3ccco3)CC2)c2ccccc21)NCC1CC1 (stereo unspecified)	75
CO[C@H]1CN(C)C(=O)c2ccc(NC(=O)NC(C)C)cc2OC[C@@H](C)N(Cc2ccc(-c3ccccn3)cc2)C[C@@H]1C	71
Cc1oc(-c2ccc(-c3ccccc3)cc2)nc1CN1CCCN(C(=O)c2ccco2)CC1	107
O=C(CSc1nnc(-c2ccc(F)cc2)o1)N1CCCc2ccccc21	-5
Cc1ccc(N2CCC3(CC2)CC(OCC(=O)N(C)C)CO3)nn1 (stereo unspecified)	1
COc1ccc(C2NC(C(=O)O)Cc3c2[nH]c2ccccc32)c(OC)c1OC (stereo unspecified)	-12
NS(=O)(=O)c1ccc(Cn2cnnc2)cc1	55
COc1ccc(C(C)NC2CCN(C)CC2)cc1 (stereo unspecified)	-21
CS(=O)(=O)N1CCc2sc(C(=O)Nc3ccccc3F)cc21	-19
O=C(Cn1ncc2c(N3CCN(c4ccccn4)CC3)ncnc21)Nc1ccc(Cl)cn1	-83*
Cc1oc(-c2ccccc2)nc1Cn1nnc(C(=O)Nc2ccc(F)cc2F)c1C	54
CCc1cc(-c2cc(F)c3c(c2)CC(CN)O3)nc(N2CCOCC2)n1 (stereo unspecified)	-8
NCC(c1cccs1)N1CCCCCC1 (stereo unspecified)	21
C[C@H]1CN([C@@H](C)CO)C(=O)c2cc(C#CC3(O)CCCC3)cnc2O[C@H]1CN(C)S(=O)(=O)c1cccc(F)c1	61
COc1ccc2c3c([nH]c2c1)[C@@H](CO)N(Cc1ccccc1)CC31CN(C(=O)Nc2cccc(F)c2)C1	6
CN1CC2(CCCN(C(=O)C3(c4ccc(F)cc4)CC3)C2)OC1=O (stereo unspecified)	1
Cc1ccc(S(=O)(=O)N(C)C[C@H]2OCCCC[C@H](C)Oc3ccc(NC(=O)c4ccncc4)cc3C(=O)N([C@@H](C)CO)C[C@@H]2C)cc1	-98*
COc1ccc(Cl)cc1S(=O)(=O)N1CCc2nc(-c3ccccc3)sc2C1	-118*
N#C[C@H]1[C@H](c2ccccc2)[C@H](CO)N1S(=O)(=O)c1cccc(F)c1	14
Fc1cccc(CNc2nc(-c3nnc(-c4ccc(Cl)cc4)o3)nc3ccccc23)c1	90
Cc1cc(C)n(-c2ccc(C(=O)Nc3cccc(-n4cccn4)c3)cc2)n1	-13
Cc1nn(CC(=O)N2C[C@@H](c3ccccc3F)[C@@]3(CCCCC(=O)N3)C2)c(C)c1C	6
CCc1nc(-c2c(-c3ccccc3)ncn2CCn2cc(C)nn2)c(C)[nH]1	2
COCCN(Cc1nccs1)C(=O)c1ccccc1C1CCNC1 (stereo unspecified)	-5
COc1ccc(-c2cc3c(=O)n(Cc4nc(-c5ccc(Cl)cc5)oc4C)ccn3n2)cc1	-38
CNC(CC(=O)O)C(=O)O (stereo unspecified)	11
CNC(=O)c1cc(=O)n(CC(=O)Nc2ccc(C)cc2Cl)c2ccccc12	9
O=C(NCc1cccnc1)[C@H]1C[C@@H]2CN(c3ncc(F)cn3)C[C@H]1O2	3
CC(C)CCN1C[C@@H]2CCN(C(=O)c3ccccn3)CC[C@H]2S1(=O)=O	-35
O=C(Nc1ccc(NS(=O)(=O)c2ccc(Oc3ccccc3)cc2)cc1)c1ccccc1	4
Cc1ccc(S(=O)(=O)N(C)c2cncc(C(=O)N3CCCCCC3)c2)cc1	-11
COc1ccc(NC(=O)CC(=O)N2CCN(C3CCCC3)C(=O)C2)c(OC)c1	30
CC(C)c1nccc(CN2CCc3[nH]cnc3C2Cc2ccccc2)n1 (stereo unspecified)	7
COc1ccc(C(=O)N2CCN(CC3CCOC(C)(C)C3)CC2)cc1 (stereo unspecified)	-2
Nc1nc(=Nc2ccccc2)n2c(n1)sc1ccccc12	12
Cc1ccc(-c2nc(CN3CCN(C(=O)Nc4cc(C)cc(C)c4)CC3)c(C)o2)cc1	2

Overlap with the part before: 5 entries; new compounds follow.
SMILES	Tg IFNy HTS
COc1ccc(NC(=O)CC(=O)N2CCN(C3CCCC3)C(=O)C2)c(OC)c1	30
CC(C)c1nccc(CN2CCc3[nH]cnc3C2Cc2ccccc2)n1 (stereo unspecified)	7
COc1ccc(C(=O)N2CCN(CC3CCOC(C)(C)C3)CC2)cc1 (stereo unspecified)	-2
Nc1nc(=Nc2ccccc2)n2c(n1)sc1ccccc12	12
Cc1ccc(-c2nc(CN3CCN(C(=O)Nc4cc(C)cc(C)c4)CC3)c(C)o2)cc1	2
C/C=C/c1ccc([C@@H]2[C@H](CO)N(CC3CCOCC3)C23CN(C(=O)COC)C3)cc1	105
CN(C)CCNC(=O)c1cc(-c2cnc(-c3ccnn3C)nc2)cn1C	71
CCn1c(CNS(=O)(=O)c2c(C)nn(C(F)F)c2C)nc2ccccc21	-40
CCOC1C2CCC1N(C(=O)N(C)C)CCO2 (stereo unspecified)	14
COc1ccccc1CC(=O)N1CCCC1c1cc2nc(C)cc(C(F)(F)F)n2n1 (stereo unspecified)	-21
CCCc1nc2c(nnn2Cc2ccccc2Cl)c(=O)[nH]1	-7
C=CCO[C@@H]1CCN(C2CCOCC2)[C@H]1Cc1cccnc1	15
Cc1nc(C(C)N(C)Cc2cccc(CN3CCOCC3)c2)c(C)s1 (stereo unspecified)	-42
COc1ccc(OCc2nc(C(=O)N3CC(N4CCCCC4C)C3)co2)cc1 (stereo unspecified)	-6
C#CC(C)(O)CCc1c(C)cc(OC)c(C)c1C (stereo unspecified)	-18
Clc1ccc(-c2nn[nH]n2)cc1Cl	97
O=C(N[C@@H]1C=C[C@@H](CC(=O)N2CCC(Cc3ccccc3)CC2)O[C@H]1CO)c1cnccn1	15
O=C(NCCc1csc(-c2cccc(F)c2)n1)c1cccs1	-28
NC(=S)c1ncc(C(F)(F)F)cc1N1CCCC1	73
Cc1nn(-c2ccc(F)cc2F)c(=O)c2nc(-c3ccccc3)sc12	0
OCC1OC(O)C(F)C(O)C1O (stereo unspecified)	11
COc1ccc(CN2CC3CC(C(=O)NCc4cccnc4)C(C2)O3)cc1 (stereo unspecified)	6
Cc1ccc2c(c1)NC1(CCN(S(=O)(=O)c3cccc(Cl)c3)CC1)c1cccn1-2	27
COc1ccc(CCn2nc(C(=O)N(C)C)c3c2CCN(C(=O)c2cc(-c4ccccc4)n[nH]2)C3)cc1	2
CCc1cccc(OCCCN(C)C(=O)c2ncccc2O)c1	-4
COc1nccc(C(F)(F)F)c1C(N)=O	0
Cc1ccc2c(c1)CCCN2C(=O)CN(CCO)Cc1nccs1	-2
O=C(Cn1ncc2c(N3CCCC3)ncnc21)NCc1ccncc1	-35
O=C(Nc1ccn(Cc2ccc(Cl)cc2Cl)n1)c1ccco1	-46
CCS(=O)(=O)N1CCC(C(=O)NCCc2csc(-c3ccccc3)n2)CC1	16
Cc1ccc(S(=O)(=O)N2Cc3c(CN(C)C)nn(C)c3C2)cc1	-67
Cc1nc2nnc3ccc(C(=O)C(C)C)cc3c2n1C1CCCC1	1
COc1ccccc1N=c1oc2c(OC)cccc2cc1C(N)=O	-12
O=C(NCCc1csc(-c2ccccc2)n1)C1CCN(C(=O)c2cccc(Cl)c2)CC1	-30
COC(=O)C[C@@H]1C=C[C@@H](N)[C@H](CO)O1	-22
C[C@@H]1CCCCO[C@H](CN(C)Cc2ccc(Cl)c(Cl)c2)[C@@H](C)CN([C@H](C)CO)C(=O)c2cc(NC(=O)c3ccncc3)ccc2O1	88
CCCCCCCCNC[C@@H](O)[C@H](O)[C@@H](O)[C@@H](O)CO	25
O=C(c1ncn2c1CN(CC1CC1)S(=O)(=O)c1ccccc1-2)N1CCC(O)CC1	-7
O=C(c1ccccc1F)N1C[C@H](OCC2CC2)[C@@H]2OCCC[C@@H]21	39
Cc1ccc(N2CCCC2=O)cc1S(=O)(=O)NCCc1c(C)noc1C	-22
COc1ccc(CNC(=O)c2nc(N(C)C)c3cnn(C)c3n2)cc1	-17
Cc1cccc(C)c1NS(=O)(=O)c1cc2c3c(c1)CCC(=O)N3CCC2	-3
O=C(Cc1ccccc1Cl)N1CCC2(CC1)Nc1ccccc1-n1cccc12	66
CN1CCn2nc(C(=O)NC3c4ccccc4-c4ccccc43)cc2C1	-2
CC(=O)N1Cc2cc(C(=O)NCC(F)(F)F)nc(-c3cccc(-c4cc5ccccc5o4)c3)c2[C@H]1CCO	53
N[C@@]1(C(=O)O)CC[C@H]2[C@H](C(=O)O)[C@H]21	21
CC(c1cnn(C)c1)n1ccnc1-c1cccc(O)c1 (stereo unspecified)	-8
COc1ncccc1-c1ccc(CN2CCN(C)CC2)cn1	8
Cc1ccsc1-c1nc(CN2CCC3(CC2)CN(C)C(=O)O3)c(C)o1	5
CC(=O)NC12CC3CC(C1)CC(C(=O)NC(c1ccc(F)cc1)c1nccn1C)(C3)C2 (stereo unspecified)	13

Molecules from the list above that have a cyano group, in the order listed:
SMILES	Tg IFNy HTS
N#Cc1cc2c(cc1C#N)N1CCCc3cccc(c31)O2	-92*
N#C[C@H]1[C@H](c2ccccc2)[C@H](CO)N1S(=O)(=O)c1cccc(F)c1	14

3 compounds already listed, ordered by SMILES length, largest number first:
SMILES	Tg IFNy HTS
O=C(c1ccccc1F)N1C[C@H](OCC2CC2)[C@@H]2OCCC[C@@H]21	39
Cc1cccc(C)c1NS(=O)(=O)c1cc2c3c(c1)CCC(=O)N3CCC2	-3
Cc1ccc(N2CCCC2=O)cc1S(=O)(=O)NCCc1c(C)noc1C	-22

Continuation.
SMILES	Tg IFNy HTS
C/C=C/c1cnc2c(c1)C(=O)N([C@H](C)CO)C[C@H](C)[C@H](CN(C)C(=O)Nc1cccc(OC)c1)O2	-4
CC(=O)Nc1cc(-c2ccc(Br)cc2)nn1Cc1ccc(Cl)cc1	13
O=C(CC1CC2(CCN(C(=O)c3ccco3)CC2)Oc2ccccc21)NC1CC1 (stereo unspecified)	3
CN1CCCn2c(nc(CNC(=O)c3cccn3C)cc2=O)C1	3
CCCN1C[C@H](C)[C@H](OC)CN(C)C(=O)c2cc(NC(=O)Nc3cccc(F)c3)ccc2OC[C@@H]1C	-60
Cc1ccc(CN(CCN(C)C)C(=O)c2cnc3ccccn23)s1	24
CN(C)CC(=O)N1CCCC2(CC(N(C)Cc3ccccn3)CO2)C1 (stereo unspecified)	18
COC(=O)c1ccc(-c2noc(CN3CCCN(c4ccccc4)CC3)n2)cc1	8
Cc1noc(C)c1CC(=O)N1CCC(c2nc(-c3ccncc3)cc(=O)[nH]2)C1 (stereo unspecified)	14
CCS(=O)(=O)N1CCC2(CC1)OC(=O)C(C)=C2C(=O)Nc1ccc(Cl)c(Cl)c1	16
CC/C=C\CCCN1CCC2(CC1)CNC(=O)C2	0
COc1ccccc1-c1nc(Cn2nnc(-c3nc(-c4cccnc4)no3)c2C)c(C)o1	-3
CCN1CCOCC12CCN(c1ccc(C#N)cc1)CC2	13
O=C(O)C1=CO[C@@H](O[C@@H]2O[C@H](CO)[C@@H](O)[C@H](O)[C@H]2O)[C@@H]2C(CO)=CC[C@H]12	6&26
Cc1cc(-c2cc(C3CCN(C(=O)C4CC(=O)C4)C3)ccn2)ccc1F (stereo unspecified)	15
C[C@H](NC(=O)OC(C)(C)C)C(=O)NCC1CCC(C(=O)O)CC1 (stereo partly specified)	-1
CN(C)C(=O)N1CCC2(CC1)C(c1cnn(C)c1)CC(=O)N2C (stereo unspecified)	10
Cc1[nH]c2c(F)cccc2c1CC(=O)NCc1cc(=O)[nH]cn1	3
O=C(C[C@H]1CC[C@H]2[C@@H](COC[C@@H](O)CN2C(=O)Nc2ccc(F)cc2)O1)NC1CCC1	-7
O=C1NCC(=O)N2CCN(C(=O)CCc3ccsc3)CC12 (stereo unspecified)	1
CN1CCC(Cc2noc(CCc3ccc4c(c3)OCO4)n2)CC1	0
COc1cccc(-c2ccc(NC(=O)c3ccc(Cn4cnnn4)cc3)cc2)c1	0
CC(C)(COC(=O)Nc1ccc(Cl)cc1)n1cccc1	10
Cc1cc(C)cc(C(=O)Nc2ccc(N3CCOCC3)cc2)c1	11
C[C@H](CO)N1C[C@H](C)[C@H](CN(C)C(=O)CCC(F)(F)F)OCc2cn(nn2)CCCC1=O	170
CC(=O)N1CCCCN2[C@H](CO)[C@@H](c3ccc(-c4ccccc4)cc3)[C@H]2C1	19
CCC(=O)NCCc1csc(-c2cccc(F)c2)n1	69
CCc1nc(CNC(=O)c2cn(C(CC)c3ccc(F)cc3)nn2)no1 (stereo unspecified)	-43
CC(=O)N1CCCC1c1csc(Nc2cnccn2)n1 (stereo unspecified)	15
Cc1ccc(S(=O)(=O)N[C@H]2CC[C@H](CC(=O)NCc3ccncn3)O[C@H]2CO)cc1	21
CC1CCC2C(=O)N(c3ccccc3OC(=O)c3ccccc3F)C(=O)C2C1 (stereo unspecified)	10
